High-throughput results as filed in PubChem BioAssay.
TRPV1 PAM: potentiators of human vanilloid receptor 1 (TRPV1). Q8NER1. TRPV1-expressing cells, Fluo-8 calcium influx, capsaicin EC20 potentiation; host cell line not named in the record; control for the full effect not named in the record. potentiation, % at 8.33 µM. 320,000 compounds, 0.02% hits. AID 540277; active means potentiation above 80%; inconclusive means 30% to 80%; inactive means below 30%; note: 0% is about no effect
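Cells expressing TRPV1 were dye-loaded with Fluo-8 and read kinetically: 10 s baseline, 3 min after compound (agonist portion), then 2 min after EC20 capsaicin (allosteric enhancer portion). Calcium-bound dye fluorescence at 480/520 nm.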
TRPML1 inh: human mucolipin-1 channel inhibition | Q9GZU1 | TRPML1-inducible cells, Ca2+ dye fluorescence, FDSS; stronger effect = lower value; inhibition of EC80 agonist-evoked calcium signal | activity change, negative = inhibition, % (no concentration beside the values) | 390,000 compounds, 0.02% hits; in the data active means activity change below about -50%; inconclusive means about -30% to -50%; inactive means above about -30%;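 note: stimulus is agonist 54-4 at its EC80 concentration; % is set by controls: 0 for no effect and ±100 for the full control effect; compound concentration not given in the record; the text of the record puts the active cut at -80%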
Target sequence (Q9GZU1 whole entry, looked up): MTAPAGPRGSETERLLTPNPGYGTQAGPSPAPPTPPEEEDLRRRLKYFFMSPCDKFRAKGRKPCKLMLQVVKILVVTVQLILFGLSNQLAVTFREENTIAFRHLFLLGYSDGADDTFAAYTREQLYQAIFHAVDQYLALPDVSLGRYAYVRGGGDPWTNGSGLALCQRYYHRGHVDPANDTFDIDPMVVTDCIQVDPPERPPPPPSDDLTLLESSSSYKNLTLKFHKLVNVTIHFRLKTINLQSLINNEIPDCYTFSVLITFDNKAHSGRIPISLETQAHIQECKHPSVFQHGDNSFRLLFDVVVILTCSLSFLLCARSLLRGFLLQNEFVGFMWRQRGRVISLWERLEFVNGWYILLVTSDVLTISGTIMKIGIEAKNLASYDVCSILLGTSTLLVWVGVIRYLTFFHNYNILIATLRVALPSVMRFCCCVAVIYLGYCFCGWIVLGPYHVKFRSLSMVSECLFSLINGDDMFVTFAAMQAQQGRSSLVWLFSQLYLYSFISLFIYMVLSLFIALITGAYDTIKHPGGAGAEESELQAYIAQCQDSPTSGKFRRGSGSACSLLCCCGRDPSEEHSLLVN
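Tet-induced TRPML1-DL cells loaded with Ca8 no-wash calcium dye were read kinetically on FDSS. Compound addition was followed by EC80 agonist 54-4 (4 uM final); inhibition was read over 110 s.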
TRPML1 ag: agonists of human TRPML1 channel | Q9GZU1 | TRPML1-expressing cells, Ca2+ dye fluorescence, FDSS; host cell line not named in the record; reference of the full effect not given here | activation, % (test concentration not listed) | 410,000 compounds, 0.12% hits; in the data active = activation above about 50%; inconclusive = about 30% to 50%; inactive = below about 30%; note: 0% is about no effect; the text of the record puts the active cut at 80%
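In this qHTS format, compounds were pin-transferred onto Ca8-dye-loaded TRPML1-DL cells induced with Tet overnight, and intracellular Ca2+ fluorescence was recorded kinetically for 110 s after a 10 s baseline. A subsequent 4uM final 54-4 (EC80) addition followed by a second 110 s read served as the antagonist phase.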
Sfp PPTase inh: Sfp phosphopantetheinyl transferase inhibition; AID 1490; 310,000 compounds, 3.5% hits; Biochemical Sfp PPTase activity, qHTS; Q9F4F7; Potency, µM, without a hit: max response, negative = inhibition, actives largely listed as inhibitors; active = well fitted inhibition curve with a large enough effect; inconclusive = small, poorly fitted or top-dose-only effect, or another doubt; inactive = no such curve, though single readings can be large or run the other way;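 note: the enzyme is Sfp with the accession as filed and its product quenches rhodamine fluorescence; potency is the fitted concentration of half-maximal effect; 0% = enzyme reaction without inhibitor and -100% = no enzyme wells; top concentration of the series not given in the record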
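After 15 min at room temperature with compound, 15 nM Sfp received 5 uM rhodamine-CoA plus 12.5 uM BHQ-2-ybbR (50 mM Hepes pH 7.6, 10 mM MgCl2). Rate came from the fluorescence difference over 30 min, ex 525/em 598 nm.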
PINK1 expr mod: PINK1 expression modulation; PINK1 immunofluorescence, high-content cytometry, 24 h; Potency, µM (doses to about 76.6 µM), for inactives: at the top dose activation (PINK1 increase), most hits filed as activators; 410,000 compounds, 0.2% hits; AID 624263; active = well fitted activation curve with a large enough effect; inconclusive = small, poorly fitted or top-dose-only effect; inactive = flat fitted curve, though single readings scatter; cell line not stated here;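 note: potency is the fitted concentration of half-maximal effect; % of control where 0% means no effect; nearly all actives have a fitted effect of over 65% in size; a mitochondrial uncoupler was the plate control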
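Compound titrations (5 concentrations, 24 h) on a stable cell line; DMSO and CCCP controls. Endpoint: fixed-cell PINK1 immunofluorescence with mitochondrial, cell and nuclear markers, scanned by microplate cytometer.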
Menin MLL FP FL: displaces fluorescein MLL peptide from human menin | FP activity change, % at 61.4 µM | Fluorescence polarization, fluorescein-MLL peptide displacement from menin | 290,000 tested, under 10 active | AID 1766; inconclusive = falling polarisation curve, or a change in total fluorescence; inactive = total fluorescence flat and polarisation flat or rising; no compound was filed as active; the % refers to the polarisation; negative = inhibition;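 note: % of control where 0% means no effect; inhibitors lower the polarisation; unlabelled MLL peptide was the positive control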
ClpP mod: qHTS Assay for Activators of ClpP; ATP-dependent Clp protease proteolytic subunit (Bacillus subtilis (strain 168)), P80244; purified B. subtilis ClpP, FRET peptide cleavage, 20 min; Potency, µM (top dose mostly 57.5 µM), without a hit: at the top dose activity change, negative = active; 340,000 compounds, 1.9% hits; active = well fitted falling curve with a large enough effect; inconclusive = small, poorly fitted or top-dose-only effect; inactive = no such curve, though single readings can be large or run the other way; note: potency is the fitted concentration of half-maximal effect; the source files actives as falling curves though it sought activators and does not explain the sign; nearly all actives have a fitted effect of over 65% in size; many hits overshoot -100%
Target sequence (P80244 whole entry, looked up): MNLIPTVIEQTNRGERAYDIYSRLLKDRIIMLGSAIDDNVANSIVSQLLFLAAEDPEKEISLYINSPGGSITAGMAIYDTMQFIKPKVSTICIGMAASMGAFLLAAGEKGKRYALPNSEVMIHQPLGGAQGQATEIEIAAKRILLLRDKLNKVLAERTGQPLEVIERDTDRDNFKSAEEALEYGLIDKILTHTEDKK
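FRET quenching reversal measured ClpP activation: 10 microg/mL B. subtilis ClpP at pH 8 with the FRET-FV decapeptide, read at 430 nm after 320 nm excitation. The 20-min minus 0-min signal was scaled between DMSO/no-enzyme wells and ADEP (5.8 microM final).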
An asterisk follows results filed as active; u = inconclusive; x = not tested or not shown; [ ] = another dose, or the depositor's remark.

smiles | TRPV1 PAM | TRPML1 inh | TRPML1 ag | Sfp PPTase inh | PINK1 expr mod | Menin MLL FP FL | ClpP mod
Cc1cc(C)c(-c2csc(NC(=O)C3=COCCO3)n2)c(C)c1 | -13 | -7 | -0.2 | x | 9.9% | x | x
Cc1nn(C)c2c1c(-c1ccccc1)cc(=O)n2C(C)C(=O)NCc1ccc(F)cc1 (stereo not given) | x | -7 | 1.6 | x | 0.4% | x | 3.9%
Nc1nonc1-n1nnc(C(=O)N/N=C/c2cccnc2)c1CSc1ccccc1 | -11 | 2 | -0.4 | -1% | 0.6% | -5.9 | -1.2%
Cc1oc(-c2ccccc2Cl)nc1CN(Cc1ccccn1)C[C@@H]1CCC(=O)N1 | -1 | -3 | 0.3 | -25% | 1.3% | -3.4 | -3.7%
CC(C)(C)c1cc(CCC(=O)NCc2cccnc2)cc(C(C)(C)C)c1O | 4 | -3 | 2.1 | 22µM* | -0.1% | x | -0.5%
CCOC(=O)c1c(CN2CCOCC2)oc2ccc(OC(C)=O)cc12 | -2 | 10 | 0.4 | 2% | 0.4% | -4.7 | -1.2%
O=C(CSc1nc2ccsc2c(=O)n1Cc1ccccc1F)NCc1ccccc1Cl | x | 14 | 1.7 | x | 4.6% | x | -2.3%
CC(=O)Nc1ccc(S(=O)(=O)NCC2CCCO2)cc1 (stereo not given) | x | -15 | 1.5 | x | -0.4% | x | x
CCOc1ccc(C(=O)N2CCC3(CC2)NCCc2[nH]cnc23)cc1 | 12 | -7 | -0.3 | 3% | -0.5% | x | -0.1%
O=C(Nc1ccccc1C(=O)OCc1cc(=O)n2c3c(sc2n1)CCCC3)c1ccccc1 | x | 0 | 1.7 | x | -0.2% | x | -25%
CCOC(=O)c1c(-c2ccccc2)c2cc(OC)ccc2n1CCCN(C)C | -31 | x | x | -6% | -1.3% | 3.8 | 4.3%
CCC(c1nnnn1-c1ccc2c(c1)OCCO2)N1CCN(Cc2c(F)cccc2Cl)CC1 (stereo not given) | x | x | -0.6 | x | 0.4% | x | -5.0%

Going on with the list:
smiles | TRPV1 PAM | TRPML1 inh | TRPML1 ag | Sfp PPTase inh | PINK1 expr mod | Menin MLL FP FL | ClpP mod
Nc1ccc(-c2nc3cc(N)ccc3o2)cc1 | 6 | 15 | 0.8 | -1% | 1.1% | -2.9 | 3.9%
O=C(c1ccc(NS(=O)(=O)c2cccs2)cc1)N1CCCCC1 | 0 | -17 | -0.1 | 12% | 1.0% | 0.3 | 0.9%
O=C(COC(=O)c1nsc(Cl)c1Cl)NC1CCCCC1 | u | -2 | -0.6 | 3% | -1.7% | 1.4 | x
N#Cc1ccc(CCc2ccccc2)[nH]c1=O | x | 6 | -0.2 | x | -0.8% | x | x
C/C(=N\NC(=O)c1cc(Br)ccc1O)c1cccs1 | 8 | 39 | 0.5 | 15% | -2.8% | -6.6 | x
Oc1c(Br)cc(C2N=C(c3ccccc3Cl)NO2)cc1Br (stereo not given) | 1 | 16 | 0.4 | -14% | -0.1% | 1.2 | -4.9%
Cc1ccn2c(/C=N/OCc3cccc(F)c3)c(-c3ccc(Cl)cc3)nc2c1 | x | -7 | 1.4 | u | 0.8% | 0.7 | 25µM*
Cc1cccc(NC(=O)CN2C(=O)NC3(CCCC3)C2=O)n1 | -1 | 6 | 0.3 | x | -0.3% | x | x
CN(C)CCNC(=O)c1cc2sc3ccccc3c2s1 | -12 | 6 | 0.2 | -8% | -2.3% | 0.1 | x
CCCCN(C)CCNC(=O)c1cc2cc3ccc(OC)cc3nc2o1 | -10 | 16 | -0.8 | 6% | 1.8% | 7.0 | 3.6%
O=C(O)C[C@H]1c2cc(C(F)(F)F)ccc2S(=O)(=O)N1C1CCN(Cc2ccccc2)CC1 | x | -22 | 0.4 | x | 0.0% | x | -0.1%
Cc1cccc(C)c1OCC(=O)Nc1ccc(S(=O)(=O)Nc2ccccn2)cc1 | 21 | -4 | 1.7 | -14% | -1.1% | 4.2 | -15%

(cont.)
smiles | TRPV1 PAM | TRPML1 inh | TRPML1 ag | Sfp PPTase inh | PINK1 expr mod | Menin MLL FP FL | ClpP mod
COc1cc2c(CCNC(C)=O)c[nH]c2cc1O | x | -9 | 0.1 | x | 1.6% | 6.0 | -25%
COc1cc(C2Nn3c(nnc3-c3ccccc3OC)S2)ccc1O (stereo not given) | -4 | 3 | -0.6 | u | -0.9% | -0.9 | -9.0%
COc1ccccc1C(=O)NCCC(=O)N(C)Cc1cccnc1 | -6 | -3 | 0.0 | x | 1.0% | x | -1.4%
CC(C)c1nnc(NC(=O)C2CCN(c3cnccn3)CC2)s1 | -5 | -4 | -0.1 | 13% | 1.7% | 1.8 | -21%
CCN1CCCC1CNC(=O)Cn1cccc1C(=O)c1ccccc1C (stereo not given) | 11 | 17 | 0.6 | -8% | -1.2% | 3.5 | -1.5%
O=C(Nc1ccccc1N1CCCC1)c1cc(S(=O)(=O)N2CCOCC2)ccc1Cl | -9 | 25 | 0.7 | x | 4.5% | x | -2.8%
CSc1ccccc1C(=O)Nc1nccs1 | 0 | 3 | -0.1 | -5% | -0.6% | 1.4 | -1.2%
COc1ccccc1NC(=O)COC(=O)CNC(=O)c1ccc(OC)c(OC)c1 | 14 | 11 | -0.4 | 15% | -3.0% | 6.7 | 0.5%
CSc1ccc(CCNC(=O)C2CCCN(c3nn4c(=O)cc(C)nc4s3)C2)cc1 (stereo not given) | -14 | -2 | 0.5 | 19% | 3.8% | -7.5 | -2.6%
O=C(CN1C(=O)NC2(CCCC2)C1=O)N1CCCSC1=Nc1ccccc1 | -3 | -4 | 0.0 | x | 1.1% | x | -3.1%
Cc1noc(C)c1COc1ccc(C(=O)NCC2CCCO2)cc1 (stereo not given) | 3 | -11 | 0.7 | -5% | -1.3% | -2.7 | -0.5%
Cc1cc(C)c(CN2CCN(CCCn3cnc(C(=O)Nc4ccc(C)c(C)c4)n3)CC2)c(C)c1 | x | 1 | 0.0 | x | -1.2% | x | -0.1%

Next results follow.
smiles | TRPV1 PAM | TRPML1 inh | TRPML1 ag | Sfp PPTase inh | PINK1 expr mod | Menin MLL FP FL | ClpP mod
Clc1ccc(Nc2ncn[nH]2)c(Cl)c1 | -1 | -3 | 0.4 | 0% | -1.2% | -2.2 | x
CCOC(=O)c1c(C)c(C(=O)Nc2ccc3c(c2)OCO3)c(C)n1C | -12 | 6 | 0.2 | -4% | 12%[38.3 µM] | 3.2 | 3.0%
COc1ccc(C[C@H]2CN3C(=NC[C@H]3C)N2CCNC(=O)c2ccc(C)c(Br)c2)cc1 | 6 | -7 | -0.3 | 5% | 1.5% | -3.2 | -0.2%
COc1ccc(CC(=O)NCc2cccs2)cc1 | 13 | 2 | -0.8 | 17% | 8.2% | -3.4 | 0.5%
COc1c(F)c(F)cc2c(=O)c(C(=O)O)cn(C3CC3)c12 | 15 | -5 | -0.3 | -15% | -1.2% | -0.8 | -3.3%
Nc1nc(=S)c2ncn([C@@H]3O[C@H](CO)[C@@H](O)[C@H]3O)c2[nH]1 | 6 | 8 | -0.6 | x | 1.8% | x | 3.1%
CC(C)n1nc(C(=O)Nc2cccc(S(=O)(=O)NCc3ccco3)c2)c2ccccc2c1=O | 15 | 35 | 2.4 | 10% | 0.1% | -2.1 | -5.8%
Cc1ccc(-n2c(SCc3ccc([N+](=O)[O-])cc3)nc3ccccc3c2=O)cc1 | 3 | 15 | 1.4 | 8% | 6.9%[38.3 µM] | -0.6 | 0.3%
O=C(O[C@@H]1Cc2c(O)cc(O)cc2OC1c1ccc(O)c(O)c1)c1cc(O)c(O)c(O)c1 (stereo not given in full) | x | x | x | 50µM* | -0.3% | 19 | x
O=C(C1CC(=O)N(c2ccc(F)cc2)C1)N1CCN(c2ccccc2)CC1 (stereo not given) | -11 | 2 | 0.3 | 10% | 1.1% | x | x
CN(C)S(=O)(=O)c1ccc(C(=O)Nc2nnc(Cc3ccccc3)s2)cc1 | 26 | -6 | -0.7 | -2% | 3.9% | 2.7 | 22µM*
C[C@H](O)[C@@H](C(=O)N1CCN(C(=O)OC(C)(C)C)CC1)n1cc(CCCCNC(=O)OC(C)(C)C)nn1 | 20 | -4 | -0.6 | 13% | -0.7% | -3.7 | -0.1%

The results go on.
smiles | TRPV1 PAM | TRPML1 inh | TRPML1 ag | Sfp PPTase inh | PINK1 expr mod | Menin MLL FP FL | ClpP mod
O=C(CNC(=O)C12CC3CC(CC(C3)C1)C2)N/N=C\c1ccco1 | u | 31 | 0.1 | 15% | -1.3% | x | 1.3%
Oc1ccc2ccccc2c1-c1sc(Nc2ccccc2)n[n+]1-c1ccc(F)cc1 | -14 | 20 | -0.1 | 10% | 12% | u | 4.0%
N=C(N)SCc1ccc(Cl)cc1Cl | -1 | -18 | -0.2 | -14% | 14% | 1.9 | -1.2%
Cc1ccc(-c2nc(CSCC(=O)NCc3cccnc3)c(C)o2)cc1 | -15 | 32 | 0.1 | 8% | -4.9% | 1.7 | -19%
NS(=O)(=O)c1ccc(CCNC(=O)CN2CCCCCC2)cc1 | -4 | -9 | 1.7 | 6% | -0.1% | 0.4 | -2.8%
COCc1nnc(SCC(=O)NCc2ccccc2)n1-c1ccccc1 | 11 | 4 | 0.5 | 20% | -4.2%[38.3 µM] | 4.6 | -0.2%
S=C(NCc1ccccc1)Nc1ccc2ccccc2c1 | -3 | 0 | -0.3 | 4% | u | x | -0.7%
CCCCCCn1c(CN2CCN(C(=O)OCC)CC2)nc2c1c(=O)n(C)c(=O)n2C | x | -14 | 4.4 | x | 4.4%[38.3 µM] | x | -0.2%
COCCCNC(=O)CN(CCc1ccccc1)S(=O)(=O)c1ccc(OC)cc1 | 0 | -2 | -0.4 | 12% | -1.3% | -2.2 | x
O=C(N/C=C/n1cnc2cc(C(F)(F)F)ccc21)c1ccccc1 | -9 | -9 | 0.9 | 11% | 2.6% | 5.3 | x
COC(=O)c1ccccc1NC(=O)c1nc(SCc2ccccc2C)ncc1Cl | x | 8 | 0.5 | x | -0.3% | x | -0.3%
O=C(C1=C[C@H](c2ccc3c(c2)OCO3)C[C@H](OCc2ccc(CO)cc2)O1)N1CCCCCCC1 | -10 | -7 | 2.2 | -25% | -1.1% | 12 | -4.8%
CCOc1ccc(-c2ccc(SCC(=O)Nc3nnc(C)s3)nn2)cc1 | -9 | -4 | 1.1 | 5% | 1.2% | -0.3 | x
